# Bioassay records deposited in PubChem BioAssay by several laboratories.
# RecA intein inh = Mtb RecA intein splicing inhibitors, primary screen, biochemical, fluorescence, HTS | Protein RecA (Mycobacterium tuberculosis (strain ATCC 25618 / H37Rv)), P9WHJ3 | cell-free RecA intein splicing | inhibition, %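 (about 9 µM by stock and volumes)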 | 0.75% of 290,000 active | AID 2221, 2009; in the data active means inhibition above about 30%; inconclusive means no clear call, values can overlap the other calls;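 further: 0% = vehicle wells and 100% = reference inhibitor control wells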
# Target sequence (P9WHJ3 whole entry, looked up): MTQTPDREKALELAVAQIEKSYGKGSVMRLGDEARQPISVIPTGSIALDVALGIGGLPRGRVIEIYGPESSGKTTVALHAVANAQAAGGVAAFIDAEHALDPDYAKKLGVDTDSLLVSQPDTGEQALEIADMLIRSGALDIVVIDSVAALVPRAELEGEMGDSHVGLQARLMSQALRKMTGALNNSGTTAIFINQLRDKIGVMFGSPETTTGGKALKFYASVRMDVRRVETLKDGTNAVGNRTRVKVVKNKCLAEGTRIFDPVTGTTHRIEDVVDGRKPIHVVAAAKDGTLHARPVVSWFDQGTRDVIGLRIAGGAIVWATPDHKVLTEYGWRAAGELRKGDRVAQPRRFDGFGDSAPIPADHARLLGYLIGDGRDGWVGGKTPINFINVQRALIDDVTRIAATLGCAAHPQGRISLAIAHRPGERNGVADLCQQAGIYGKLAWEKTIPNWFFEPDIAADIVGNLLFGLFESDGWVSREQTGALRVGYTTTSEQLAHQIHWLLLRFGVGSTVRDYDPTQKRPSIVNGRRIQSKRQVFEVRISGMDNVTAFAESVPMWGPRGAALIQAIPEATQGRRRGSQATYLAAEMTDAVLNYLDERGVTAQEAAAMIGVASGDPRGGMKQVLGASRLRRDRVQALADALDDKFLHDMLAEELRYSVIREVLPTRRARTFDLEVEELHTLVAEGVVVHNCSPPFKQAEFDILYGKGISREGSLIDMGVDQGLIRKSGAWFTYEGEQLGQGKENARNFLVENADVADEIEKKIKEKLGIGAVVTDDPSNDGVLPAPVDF
# Mtb betalactam = beta-lactam sensitization of Mtb H37Rv, H37Rv; 0.27% of 330,000 active; M. tuberculosis H37Rv growth with meropenem, percent inhibition; hits of this screen are not shown here; AID 434955, 2010; inhibition, % at 25 µM;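 active means about 74% or more and at least 40 points above the plate without the antibiotic, then above 30% in a dose series; inconclusive means first-round hits that could not be retested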;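 further: growth measured after seven days incubation then overnight dye step; 0% = bacteria only wells and 100% = bacteria with antibiotic; twin plates without the antibiotic show which effects depend on it; some results filed as inactive read as strong as hits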
# YopH PTP inh = YopH tyrosine phosphatase inhibitors, primary screen, biochemical, fluorescence Ex485/Em525; inhibition, %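 (about 10 µM by stock and volumes)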; 0.16% of 140,000 active;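 active means inhibition of 50% or more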;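 further: controls were vehicle for no effect and minimum signal wells for full effect; inactives centre near -20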
# Arbovirus anti = antivirals against arbovirus infection, primary screen, cell-based, full library, 10K replicate subset | arbovirus infection cell-based antiviral screen | inhibition, % at 10 µM | 0.37% of 200,000 active | AID 1251, 2008;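 active means inhibition from about 30%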;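 further: bluetongue infection of BSR cells; cell survival read as ATP light after 72 h; 0% = infected wells without compound and 100% = uninfected wells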
# Mtb growth = M. tuberculosis H37Rv growth inhibitors, H37Rv strain (AID 1626); M. tuberculosis H37Rv growth inhibition; higher % means a stronger effect; 0.95% of 220,000 active; one-dose inhibition, % at 10 µM; IC50 in µM for titrated hits;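 active means confirmed in a dose series; inconclusive means inhibition above 80% but not taken into the dose series; inactive means below 80% or under 30% at every dose of the series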;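 further: bacteria incubated seven days before Alamar blue readout; 0% = bacteria only wells and 100% = bacteria with antibiotic wells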
# Arbovirus anti repeat = also measured in Arbovirus anti; calls as there; inhibition, %; measured here: 10K subset replicate screen; many hits read low in the repeat;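 first of two repeat runs on a subset; 0% = infected and 100% = uninfected wells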
# * hit, by the source's call; ? = inconclusive; nt = not tested or not shown.
SMILES,RecA intein inh,Mtb betalactam,YopH PTP inh,Arbovirus anti,Mtb growth,others
CC(C)c1nnc(NC(=O)C2CCCCC2)s1,0.7,-9,-24,6,8%,Arbovirus anti repeat=4
Cc1nnc2c(SC(C)C)nc3ccccc3n12,-3.8,-6,nt,nt,nt,
COc1ccc2c(C)c(CC(=O)N3C[C@H]4C[C@@H](C3)c3cccc(=O)n3C4)c(=O)oc2c1C,-2.7,-6,nt,nt,nt,
CN(C)c1ccc(C(=O)NC2CCCc3ccccc32)cc1 (centres undefined),0.5,7,nt,6,8%,
CC1(C)CC(=O)N(CC(=O)N2CCN(c3ncccn3)CC2)c2ccccc2S1(=O)=O,nt,3,-11,2,1%,Arbovirus anti repeat=0
COc1ccccc1N(C)S(=O)(=O)c1ccc(C(=O)OCC(=O)Nc2ccccc2F)cc1,nt,16,nt,0,2%,
CC(C(=O)NN=C(c1ccccc1)c1ccccc1)N1CCCC1 (centres undefined),-0.2,-3,nt,-1,5%,
c1ccc(Cc2nnc3n2N=C(c2ccccc2)CS3)cc1,-2.2,4,nt,-6,16%,
CCOC(=O)N1CCC(NC(=O)c2cccc3c2C(=O)N(Cc2cccnc2)C3)CC1,-2.8,-8,-46,-2,-10%,
COc1ccccc1C(=O)NCCC(=O)N(C)CC(=O)Nc1c(Cl)cccc1Cl,1.3,-10,nt,nt,nt,
COC(=O)c1ccc(Nc2nc(C)nc3c2nnn3Cc2ccccc2)cc1,1.2,-2,nt,nt,nt,
CSCCC(NC(=O)c1ccc(Br)cc1)C(=O)O (centres undefined),0.8,3,nt,-1,-9%,
O=[N+]([O-])c1cccc(/C=N/Nc2nc(NCc3ccccc3)nc(N3CCOCC3)n2)c1,-0.4,0,-25,-8,-3%,
Cc1cc(Br)ccc1NC(=O)C1CCN(C(=O)c2ccco2)CC1,-1.9,-5,nt,nt,nt,
Cc1cccc(C)c1OCc1nnc(SCC(=O)NCc2ccccc2)o1,0.3,54,-12,-16,0%,
N#CCSc1nnc(COc2ccccc2)n1-c1ccccc1,-1.8,-3,7,-5,-11%,
CC(SCC(=O)Nc1ccc(F)cc1)c1nc2ccccc2c(=O)[nH]1 (centres undefined),1.7,-5,nt,nt,nt,
COc1ccc(CCNS(=O)(=O)c2csc(C(N)=O)c2)cc1OC,2.6,-1,nt,nt,nt,
Clc1cccc(Cl)c1Cn1nnc(-c2cccs2)n1,-1.1,-2,31,1,-3%,
O=c1[nH]c(=O)n(Cc2ccccc2)c2c1C(C(F)(F)F)(C(F)(F)F)N=C(c1ccco1)N2,-1.1,-8,-20,-7,-4%,
CN(C)c1nc2n(c(=O)n1)CCS2,-0.7,-19,-13,-1,-3%,
Cc1ccccc1OCc1nnc(SCC(=O)Nc2ccc(N3CCOCC3)c(Cl)c2)n1C,0.4,-1,-23,2,-6%,
O=S(=O)(c1ccc2c(c1)OCCO2)N1CCN(c2nc(-c3cccnc3)nc3ccccc23)CC1,-1.5,1,nt,5,8%,
Cn1c(SCC(=O)Nc2ccc(Br)cn2)nnc1C1CC1,0.7,-9,nt,nt,nt,
c1ccc(-n2c(SCc3ccncc3)nnc2-c2ccco2)cc1,-0.7,-12,-46,3,-3%,
# Remaining list, next part:
SMILES,RecA intein inh,Mtb betalactam,YopH PTP inh,Arbovirus anti,Mtb growth,others
O=S(=O)(NCc1ccccc1F)NCc1ccccc1F,-1.3,0,nt,6,nt,
CNc1nc(-c2ccc3c(c2)CCN3C(=O)c2ccccc2F)c(C)s1,15,35,nt,-5,2%,
Cc1nn(C)cc1CNC(=O)Nc1cccc(Cl)c1,-0.5,0,-4,12,-6%,
Clc1ccc(-c2csc(N/N=C/c3cccnc3)n2)c(Cl)c1,-3.4,11,-22,5,21%,
Cc1ccc2oc3nc(C)c(C(=O)Nc4cccc(C(F)(F)F)c4)cc3c(=O)c2c1,-0.6,-11,-21,-11,-1%,
O=C1NC(=S)NC(=O)C1C/C=C/c1ccccc1,-8.2,-1,-23,-4,8%,
COc1ccc(-c2nc3nc(C)cc(=O)n3[nH]2)cc1,0.6,6,-6,0,-20%,
CC(=O)Nc1cccc(C(=O)OCC(=O)NC(C)c2ccc(F)cc2)c1 (centres undefined),0.7,-4,nt,3,-2%,
CCCC(=NCc1ccccc1)C1=C(O)C(C(=O)OC)C(C)(C)CC1=O (centres undefined),3.6,5,-11,-6,2%,
O=C(NCCCCc1ccccc1)c1ccc(Br)cc1,3.8,3,nt,nt,nt,
COc1ccccc1CNC(=O)Cc1ccccc1,0.7,-3,nt,nt,nt,
COc1ccc(C(=O)NNC(=O)CCn2nnc(-c3ccc(Cl)cc3)n2)cc1OC,2.6,2,nt,3,-4%,
CC(=O)c1ccc(-c2ccc([C@H]3[C@@H]4C=CCC[C@@]4(C)C(=O)N3Cc3ccccc3)c(F)c2)cc1,4.4,99,nt,nt,?,
O=C(CNC(=O)c1ccccc1)N/N=C/c1ccc([N+](=O)[O-])s1,-2.1,99,nt,-20,?,
Cc1ccc(CCCOC(=O)CN2CCCCC2)cc1,1.0,6,nt,6,9%,
CC1CCc2sc3nc(NCc4ccco4)n4ncnc4c3c2C1 (centres undefined),0.5,53,-5,-13,4%,
COc1ccc(CN2CCN(C(=O)C3CC(=O)N(C4CCCCCC4)C3)CC2)c(OC)c1OC (centres undefined),0.1,-4,-50,5,6%,
Cc1cc(C)c2nc(N(CCCN(C)C)C(=O)c3ccc4c(c3)CCCC4)sc2c1,19,100,nt,nt,nt,
O=c1o[nH]c(-c2ccccc2)c1C=Nc1ccc(Cl)cc1,0.7,7,nt,-13,0%,
COc1ccccc1-c1cc(SC)c(C#N)c(=O)o1,1.4,5,-39,-7,4%,
CSc1ncc(CN2CCN(C(C)C)C(CCO)C2)cn1 (centres undefined),2.7,-2,nt,2,-1%,
N#Cc1ccc(CSc2nnc(Nc3ccccc3)s2)cc1,-1.6,4,-4,3,2%,
Cc1cc(C)c2c(CN3CCCCC3)cc(=O)oc2c1,2.0,-9,nt,nt,nt,
CN(C)P(=NC(=S)c1cccn1C)(N(C)C)N(C)C,-1.2,10,-30,3,-1%,
COC(=O)Cn1c(C(F)(F)F)nc2ccccc21,1.8,6,0,1,-10%,

# Next part (two carried over from the part before).
SMILES,RecA intein inh,Mtb betalactam,YopH PTP inh,Arbovirus anti,Mtb growth,others
CN(C)P(=NC(=S)c1cccn1C)(N(C)C)N(C)C,-1.2,10,-30,3,-1%,
COC(=O)Cn1c(C(F)(F)F)nc2ccccc21,1.8,6,0,1,-10%,
Cc1ccc(-c2cc(C(=O)NN3CCOCC3)c3cc(Br)ccc3n2)o1,-75,-26,nt,0,3%,
CCN1CCN(C(=S)c2ccc(Cl)cc2)CC1,-0.4,-5,-13,-2,-3%,
OC(c1ccc(F)cc1)(c1ccc(F)cc1)[C@@H]1CCCN1,0.6,-17,-26,0,-2%,
COc1ccc(/C=C2\SC(=S)N(CC(=O)N3CCN(C)CC3)C2=O)cc1,2.2,-12,nt,nt,0%,
O=C1NC(c2ccc(-c3ccccc3[N+](=O)[O-])o2)C(C(=O)c2ccc(Cl)cc2)C(O)(C(F)(F)F)N1 (centres undefined),45*,12,-11,-33,0%,
CCCCNS(=O)(=O)c1ccc2nc(SCC(=O)Nc3cc(C)cc(C)c3)[nH]c2c1,-3.0,-7,-30,-16,3%,
CCOc1ccc(-c2cc3nc(C4CCN(C(=O)OC(C)(C)C)CC4)c(C(=O)O)cn3n2)cc1,3.8,20,-7,50*,16%,
COC(=O)c1ccccc1OCC(=O)N1CCN(c2ccc(Cl)cc2)CC1,8.8,-8,-29,5,-2%,
COc1cccc(OC)c1C(=O)Nc1ccccc1N1CCCCC1,8.8,1,nt,nt,nt,
Cc1cnc(CN(C)Cc2c(C(=O)N3CCc4ccccc4C3)nc3ccc(Cl)cn23)[nH]1,2.6,-12,nt,3,4%,
CCCC1=Nc2cc(C(=O)NCCN3CCOCC3)ccc2Sc2ccc(C)cc21,-1.0,0,nt,nt,nt,
CC(C)CNC(=O)COC(=O)c1n[nH]c2ccccc12,0.0,-5,nt,-5,-2%,
Cc1c(Cl)cnc(NC(=O)COC(=O)c2ccc([N+](=O)[O-])s2)c1Cl,6.9,31,-19,0,5%,
O=C(NC1(C(F)(F)F)NC(=O)N(C2CCCCC2)C1=O)C1CC1 (centres undefined),5.5,-15,nt,-1,-7%,
NS(=O)(=O)c1ccc(NC(=S)NCC2CCCO2)cc1 (centres undefined),-2.7,0,-10,3,1%,
CCCOC(=O)c1ccc(NC(=O)COC)cc1,4.3,96,-3,-1,12µM*,
CC(=O)N1CCc2c(sc(NC(=O)CCS(=O)(=O)c3ccccc3)c2C#N)C1,-1.1,?,nt,nt,nt,
CN1c2ccc(Cl)cc2C(=O)NC1c1ccc([N+](=O)[O-])s1 (centres undefined),-1.8,91,nt,nt,56%,
CC(=O)c1cccc(NC(=S)NC(=O)c2ccccc2Br)c1,-1.5,5,-27,-8,5%,
COC(=O)C(C)(C)ONC(=O)Nc1ccccc1Br,1.6,4,-30,-6,5%,
CCCCNC(=O)COc1ccccc1[N+](=O)[O-],1.1,6,-38,-3,4%,
N#Cc1nc(Cc2cccc3ccccc23)oc1N1CCOCC1,nt,-2,-24,-3,9%,
CN(C(=O)c1ccc(-c2nn(C)c(=O)c3ccccc23)cc1)c1ccccc1,6.9,14,-27,1,6%,
O=C(NC(Cc1c[nH]c2ccccc12)c1nnc2n1CCCCC2)c1ccc(Cl)cc1 (centres undefined),4.1,?,-23,7,-6%,
CCOc1ccc(NC(=O)C(C)Oc2ccccc2C(=O)Nc2ccc(C)c(Cl)c2)cc1 (centres undefined),-1.2,4,-36,-25,41%,

# Reprinted from the part before: 6 compounds, followed by the next part.
SMILES,RecA intein inh,Mtb betalactam,YopH PTP inh,Arbovirus anti,Mtb growth,others
COC(=O)C(C)(C)ONC(=O)Nc1ccccc1Br,1.6,4,-30,-6,5%,
CCCCNC(=O)COc1ccccc1[N+](=O)[O-],1.1,6,-38,-3,4%,
N#Cc1nc(Cc2cccc3ccccc23)oc1N1CCOCC1,nt,-2,-24,-3,9%,
CN(C(=O)c1ccc(-c2nn(C)c(=O)c3ccccc23)cc1)c1ccccc1,6.9,14,-27,1,6%,
O=C(NC(Cc1c[nH]c2ccccc12)c1nnc2n1CCCCC2)c1ccc(Cl)cc1 (centres undefined),4.1,?,-23,7,-6%,
CCOc1ccc(NC(=O)C(C)Oc2ccccc2C(=O)Nc2ccc(C)c(Cl)c2)cc1 (centres undefined),-1.2,4,-36,-25,41%,
COc1ccc(NC(=O)CSc2nnc(C)c3ccccc23)cc1,12,?,nt,nt,nt,
CN1CCC2(CC1)CC(NC=O)c1ccccc1O2 (centres undefined),0.6,1,nt,15,-6%,
CCOC(=O)c1[nH]c2ccccc2c1NC(=O)Nc1ccc(OC)cc1,1.1,93,-25,-5,11%,
Cc1cc(C(=O)CSc2nnc(-c3ccncc3)n2-c2ccccc2)c(C)n1C,13,-6,-40,4,-1%,
C/C(=N\N1CCN(c2ccccc2)CC1)c1cccs1,-1.2,-3,nt,nt,4%,
O=C(CSc1nnc(-c2ccc(OC(F)F)cc2)o1)N1CCOCC1,0.4,-2,-6,-5,2%,
O=C(NCCCn1ccnc1)C(Cc1ccccc1)N1C(=O)c2ccccc2C1=O (centres undefined),2.1,-4,-40,-2,-5%,
COc1ccc2oc(=O)c(C(=O)N3CCCc4ccccc43)cc2c1,-0.7,3,-13,-4,-2%,
CCCN(CCC)C(=O)Cn1c(=O)c2ccccc2n2c(=S)sc(-c3ccccc3C)c12,1.1,-7,-22,-6,1%,
CCOC(=O)c1ccccc1N/C=C/C(=O)c1ccccc1,-0.6,69,-35,nt,-2%,
CC(C)OC(=O)C1=C2SCC(=O)N2C(N)=C(C#N)C1,-2.8,-5,-123,8,-6%,
O=C(COC(=O)c1ccc(Br)o1)NCCNC(=O)COC(=O)c1ccc(Br)o1,-1.8,5,nt,nt,nt,
CC1=NN(c2ccccc2)C(=O)/C1=C/c1c(O)n(-c2ccc(F)c(Cl)c2)[nH]c1=O,50*,2,-14,-30,-11%,
Cc1cc(=O)oc2c(C)c(OCC(=O)Nc3cccnc3)ccc12,-2.3,-2,nt,nt,nt,
COC(=O)C(CCCCN1C(=O)C2C3C=CC(C3)C2C1=O)N1C(=O)C2C3C=CC(C3)C2C1=O (centres undefined),2.7,-7,-25,6,4%,
COC(=O)C1=C(C)Nc2nnnn2C1c1cccnc1 (centres undefined),-2.0,-3,-11,-3,6%,
CCc1ccccc1NC(=O)c1cc(S(=O)(=O)N(C)C)ccc1N1CCCC1,0.6,1,nt,nt,nt,

# Some of the compounds tested; the hit share may differ from the screen's.
